Screens from PubChem.
UCH37 inh = blocks the human deubiquitinase UCH37. inhibition, % (concentration not given with the values). hit rate 0.33% among 330,000. purified proteasome/UCH37, Ub-AMC cleavage fluorescence. AID 588478;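 active = mean of two replicates above 20%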;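 note: 0% = compound-free wells with enzyme and 100% = wells lacking proteasome; stock transfer was 100 nL into about 20 µL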
Target sequence (Q9Y5K5 whole entry, looked up): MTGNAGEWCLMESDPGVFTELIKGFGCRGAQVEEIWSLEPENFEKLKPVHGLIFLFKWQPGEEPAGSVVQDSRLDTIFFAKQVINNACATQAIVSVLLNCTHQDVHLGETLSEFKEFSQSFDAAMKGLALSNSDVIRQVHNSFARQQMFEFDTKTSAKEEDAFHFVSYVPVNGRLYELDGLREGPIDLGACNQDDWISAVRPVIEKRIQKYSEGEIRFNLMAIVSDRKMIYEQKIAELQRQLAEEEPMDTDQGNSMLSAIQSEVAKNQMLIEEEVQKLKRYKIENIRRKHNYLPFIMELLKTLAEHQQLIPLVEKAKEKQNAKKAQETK
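Material: Human UCH37 enzyme supplied as purified proteasome complex | Schedule: 30 min preincubation with enzyme, 25 min cleavage at room temperature | Detection: AMC fluorescence 355/460 nm | Measure: % inhibition of Ub-AMC cleavage fluorescence | Controls: Wells without proteasome as full block, compound-free enzyme plus substrate as uninhibited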
Ecoli rRNA inh = selective bacterial rRNA inhibition in E. coli; E. coli WT GFP vs humanized-ribosome RFP mutants, fluorescence, 24 h; hits give low values; DMSO median 0, no signal -100; GFP signal change (wild-type ribosome), % (no concentration beside the values); hit rate 1.6% among 350,000;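 active = significant combined selectivity score with lowered wild-type GFP, culture density cut under 30%, mutant RFP and density less affected; inactive = any of these conditions unmet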; note: one replicate is shown; some compounds called inactive have numbers as strong as hits
FGF22 binding = binders of recombinant human FGF22 by thermal shift; SYPRO orange fluorescence; percent of sucrose octasulfate shift, DMSO zero; calls only at 9.99 µM; hit rate 1.5% among 340,000; AID 651658;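 active = melting point raised past a set limit in the mean and every replicate; three in four hits are not shown here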
Target sequence (Q9HCT0 whole entry, looked up): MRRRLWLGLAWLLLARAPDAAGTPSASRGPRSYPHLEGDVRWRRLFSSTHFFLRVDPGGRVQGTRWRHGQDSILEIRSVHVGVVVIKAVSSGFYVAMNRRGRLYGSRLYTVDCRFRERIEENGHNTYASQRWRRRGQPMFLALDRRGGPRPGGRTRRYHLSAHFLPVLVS
HNF4A DNA FP = change in binding of human HNF4 alpha to DNA. P41235. HNF4a-FITC DNA binding, fluorescence polarization, 1 h. activity change, % at 10 µM. hit rate 0.3% among 360,000; in the data active = activity change above about 30%, passing the limit was not always enough;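 note: controls were the assay level and a saturating level of protein; the project sought stronger binding though the title names inhibitors; some compounds called inactive have numbers as strong as hits; positive values seem to mean higher polarization but the record does not say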
Beta2AR agonist = activates human beta-2 adrenergic receptor causing internalization | P07550 | Am2.2-beta2AR cells, FAP receptor internalization, flow cytometry; reference of the scale not given here | response, % (no concentration beside the values) | hit rate 0.43% among 340,000 | AID 504454;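 active = response above a set limit, near 3 SD of response in nonfluorescent compounds, cut at about 42% in these data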;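 note: stock transfer was 100 nL into about 11 µL; a reference agonist was the positive control; negative values mostly stem from fluorescent compounds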
Ecoli growth = inhibitors of Escherichia coli growth; OD600, 23 h; hits give low values; OD600 absorbance (no concentration beside the values); hit rate 0.21% among 330,000;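 active = OD600 absorbance below the run mean of sample wells minus 3.6 SD, in any replicate, cut at about 0.56 in these data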;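 note: stock transfer was 300 nL into about 60 µL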
ALR H2O2 inh = blocks human ALR sulfhydryl oxidase activity; hit rate 3.8% among 290,000; P55789; AID 485317; inhibition, % (concentration not given with the values); purified ALR, DTT oxidation, H2O2 HRP-luminol luminescence;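 active = mean and each replicate at 75% or more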;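 note: stock transfer was 7.5 nL into about 7.5 µL; 0% = neutral wells and 100% = wells with inactivated enzyme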
Target sequence (P55789 whole entry, looked up): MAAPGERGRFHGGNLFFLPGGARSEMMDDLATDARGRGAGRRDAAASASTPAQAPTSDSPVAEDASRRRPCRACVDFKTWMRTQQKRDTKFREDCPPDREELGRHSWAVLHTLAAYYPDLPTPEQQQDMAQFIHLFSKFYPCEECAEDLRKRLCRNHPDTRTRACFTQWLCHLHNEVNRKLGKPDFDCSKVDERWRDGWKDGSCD
Ecoli rRNA inh OD600 = second read-out of Ecoli rRNA inh, no call of its own (marks repeat the call); OD600 change, %; measured here: OD600 growth;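 optical density of the mix in the first replicate; 0 = DMSO median and -100 = no signal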
Ecoli rRNA inh RFP = second read-out of Ecoli rRNA inh, no call of its own (marks repeat the call); RFP signal change, %; measured here: RFP humanized mutant strains;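 first replicate; 0 = DMSO median and -100 = no signal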
Numbers without * were called inactive; & = joins results of further samples.

COc1ccc(C2=NS(=O)(=O)N(C)C(C(=O)NC(C)c3ccccc3)=C2)cc1OC (configuration not stated) was read as UCH37 inh 4.1, Ecoli rRNA inh -14, FGF22 binding inactive, HNF4A DNA FP 0.1, Beta2AR agonist 0, Ecoli growth 0.7, ALR H2O2 inh 26, Ecoli rRNA inh OD600 -22 and Ecoli rRNA inh RFP 1.2.
Screening CC1CCN(CCC(=O)Nc2nccs2)CC1 returned UCH37 inh 1.8, Ecoli rRNA inh 12, FGF22 binding inactive, HNF4A DNA FP -2.1, Beta2AR agonist -3, Ecoli growth 0.71, ALR H2O2 inh 16, Ecoli rRNA inh OD600 -4 and Ecoli rRNA inh RFP 0.8.
O=S(=O)(c1ccc(F)cc1)N(CCO)CC(O)Cn1c2ccccc2c2ccccc21 (configuration not stated) was read as UCH37 inh 1.5, HNF4A DNA FP -3.3, Beta2AR agonist 2, Ecoli growth 0.62 and ALR H2O2 inh -3.
Screening COc1ccc(C(=O)CCN2CCN(c3ccccc3OC)CC2)cc1 returned UCH37 inh 1.6, Ecoli rRNA inh 6, FGF22 binding inactive, HNF4A DNA FP -2.3, Beta2AR agonist -10, Ecoli growth 0.64, ALR H2O2 inh 18, Ecoli rRNA inh OD600 2 and Ecoli rRNA inh RFP -1.3.
For COc1ccc(NC(=O)CCS(=O)(=O)c2ccc3c(c2)oc(=O)n3C)cc1OC the results were UCH37 inh 3.5, Ecoli rRNA inh 1, FGF22 binding inactive, HNF4A DNA FP 1.1, Beta2AR agonist -5, Ecoli growth 0.66, ALR H2O2 inh -10, Ecoli rRNA inh OD600 3 and Ecoli rRNA inh RFP -1.4.
CCCCCOC(=O)Cn1c(=O)oc2ccccc21 was read as UCH37 inh 4.0, Ecoli rRNA inh -10, FGF22 binding inactive, HNF4A DNA FP -0.3, Beta2AR agonist 6, Ecoli growth 0.75, ALR H2O2 inh 26, Ecoli rRNA inh OD600 0 and Ecoli rRNA inh RFP -5.4.
Screening CCCOc1ccc(N2C(=O)CC(N(CCc3ccc(OC)c(OC)c3)C(=O)c3ccccc3)C2=O)cc1 (configuration not stated) returned UCH37 inh 6.1, Ecoli rRNA inh 2, FGF22 binding inactive, HNF4A DNA FP -3.7, Beta2AR agonist -9, Ecoli growth 0.7, ALR H2O2 inh 0, Ecoli rRNA inh OD600 -10 and Ecoli rRNA inh RFP 0.6.
Screening CNc1cc(-c2cccc(C(=O)N3CCOCC3)c2)ncn1 returned Ecoli rRNA inh 6, FGF22 binding inactive, HNF4A DNA FP -4.3, Ecoli rRNA inh OD600 11 and Ecoli rRNA inh RFP -0.6.
CCn1c(SCC(=O)NC2CCCCC2)nc2c(c1=O)SC(C)C2 (configuration not stated) was read as UCH37 inh 6.3, HNF4A DNA FP -1.9, Beta2AR agonist -16, Ecoli growth 0.7 and ALR H2O2 inh -4.
CSc1nc(N)c(C(=O)Nc2ccc([N+](=O)[O-])cc2)s1 was read as UCH37 inh 6.9, Ecoli rRNA inh 12, FGF22 binding inactive, HNF4A DNA FP 2.3, Beta2AR agonist -1, Ecoli growth 0.66, ALR H2O2 inh -13, Ecoli rRNA inh OD600 4 and Ecoli rRNA inh RFP 1.4.
Screening O=C(CC1SC(=Nc2ccccc2)N(Cc2ccccn2)C1=O)Nc1ccc(Br)cc1 (configuration not stated) returned UCH37 inh -1.4, HNF4A DNA FP 3.0, Beta2AR agonist 2, Ecoli growth 0.71 and ALR H2O2 inh -2.
`CN(C)c1ccc(C=NCCC2(c3ccccc3)CCOC(C)(C)C2)cc1` (configuration not stated) gave UCH37 inh 6.3, Ecoli rRNA inh 9, FGF22 binding inactive, HNF4A DNA FP -2.6, Beta2AR agonist -6, Ecoli growth 0.69, Ecoli rRNA inh OD600 -2 and Ecoli rRNA inh RFP -1.7.
C=CCn1c(-c2ccccc2[N+](=O)[O-])n[nH]c1=S was read as UCH37 inh 3.2, Ecoli rRNA inh 11, FGF22 binding inactive, HNF4A DNA FP 2.2, Beta2AR agonist -5, Ecoli growth 0.67, ALR H2O2 inh 89*, Ecoli rRNA inh OD600 9 and Ecoli rRNA inh RFP 1.7.
Screening NC(=O)CCCn1c(C(=O)c2ccc(Cl)cc2)c2ccc(C(F)(F)F)cc2[n+]1[O-] returned UCH37 inh 4.9, Ecoli rRNA inh -1, FGF22 binding inactive, HNF4A DNA FP -1.9, Beta2AR agonist -15, Ecoli growth 0.67, ALR H2O2 inh -30, Ecoli rRNA inh OD600 -4 and Ecoli rRNA inh RFP -4.4.
C=CCSc1nc2nc(C)cc(C)n2n1 was read as UCH37 inh 0.4, HNF4A DNA FP 0.7, Beta2AR agonist -18 and Ecoli growth 0.62.
N#CCCn1c(C2CCCCC2)nc2ccccc21 was read as UCH37 inh 1.5, HNF4A DNA FP -0.5, Beta2AR agonist 1, Ecoli growth 0.74 and ALR H2O2 inh -4.
Screening CCC(CO)Nc1ncc([N+](=O)[O-])cc1C#N (configuration not stated) returned UCH37 inh 12, Ecoli rRNA inh 17, FGF22 binding inactive, HNF4A DNA FP 0.8, Beta2AR agonist -5, Ecoli growth 0.61, ALR H2O2 inh -2, Ecoli rRNA inh OD600 3 and Ecoli rRNA inh RFP 38.
O=C(CN1CCN(C(=O)c2ccco2)CC1)Nc1cc(S(=O)(=O)N2CCCC2)ccc1Cl was read as Ecoli rRNA inh -6, FGF22 binding inactive, HNF4A DNA FP 7.0, Ecoli rRNA inh OD600 -8 and Ecoli rRNA inh RFP 1.1.
For O=S(=O)(c1cccc(S(=O)(=O)N2CCCC2)c1)c1cccc(S(=O)(=O)N2CCCC2)c1 the results were UCH37 inh 6.8, FGF22 binding inactive, HNF4A DNA FP 4.4, Beta2AR agonist 0 and Ecoli growth 0.7.
`CC(=O)c1cccc(NC(=O)c2ccc3c(c2)CCCC3)c1` gave Ecoli rRNA inh -26, FGF22 binding inactive, HNF4A DNA FP 0.2, Beta2AR agonist 3, Ecoli rRNA inh OD600 -43 and Ecoli rRNA inh RFP -11.
`CC(=O)Nc1ccc(S(=O)(=O)Oc2cccc(N3C(=O)C4CC=CCC4C3=O)c2)cc1` (configuration not stated) gave UCH37 inh 0.9, HNF4A DNA FP 3.1, Beta2AR agonist 3, Ecoli growth 0.72 and ALR H2O2 inh -2.
`O=C(Nc1ccccc1N1CCCCC1)C1CCN(S(=O)(=O)c2cccc(C(F)(F)F)c2)CC1` gave UCH37 inh 3.8, Ecoli rRNA inh 5, FGF22 binding inactive, HNF4A DNA FP 1.7, Beta2AR agonist 0, Ecoli growth 0.66, ALR H2O2 inh -5, Ecoli rRNA inh OD600 3 and Ecoli rRNA inh RFP 0.5.
COc1ccc(-c2cc(C(=O)N3CCN(C(c4ccccc4)c4ccccc4)CC3)no2)cc1OC was read as UCH37 inh -1.8, HNF4A DNA FP -0.6, Beta2AR agonist 4, Ecoli growth 0.72 and ALR H2O2 inh -2.
`CCN1CCc2c(C#N)c(N3CCOCC3)nc(NCCO)c2C1` gave UCH37 inh -57, HNF4A DNA FP -11, Beta2AR agonist 19, Ecoli growth 0.68 and ALR H2O2 inh -3.
`O=C(Nc1ccc2c(c1)OCO2)c1c[nH]c(=O)n(-c2ccc(F)cc2)c1=O` gave UCH37 inh 2.3, Ecoli rRNA inh -15, FGF22 binding inactive, HNF4A DNA FP -3.6, Beta2AR agonist 8, Ecoli growth 0.66, ALR H2O2 inh -33, Ecoli rRNA inh OD600 1 and Ecoli rRNA inh RFP -2.1.
Screening CC(C)N=C1NN=C(c2cccs2)C(CC(=O)O)S1 (configuration not stated) returned UCH37 inh 13, Ecoli rRNA inh 5, FGF22 binding inactive, HNF4A DNA FP 1.4, Beta2AR agonist -1, Ecoli growth 0.67, Ecoli rRNA inh OD600 5 and Ecoli rRNA inh RFP -0.2.
Screening O=C(NC1CCCCC1)C(c1ccncc1)N(C(=O)Cc1cccs1)c1ccccc1 (configuration not stated) returned UCH37 inh 3.5, Ecoli rRNA inh -2, HNF4A DNA FP -3.3, Beta2AR agonist -4, Ecoli growth 0.72, ALR H2O2 inh -8, Ecoli rRNA inh OD600 11 and Ecoli rRNA inh RFP -2.9.
`COc1ccc(NC(=O)N(C)C[C@H]2Oc3cc(Br)ccc3S(=O)(=O)N([C@H](C)CO)C[C@@H]2C)cc1` gave Ecoli rRNA inh -3&-6, FGF22 binding inactive, HNF4A DNA FP -0.3, Ecoli rRNA inh OD600 1&-1 and Ecoli rRNA inh RFP -0.8&-0.9.
`Cc1[nH]n(-c2ccccc2)c(=O)c1C(C[N+](=O)[O-])c1ccc(F)cc1` (configuration not stated) gave UCH37 inh 10, HNF4A DNA FP 1.1, Beta2AR agonist -1 and Ecoli growth 0.58.
`CC(OC(=O)c1cccc(-n2cnnn2)c1)C(=O)Nc1ccc(F)cc1Cl` (configuration not stated) gave UCH37 inh -3.4, Ecoli rRNA inh 10, FGF22 binding inactive, HNF4A DNA FP 1.8, Beta2AR agonist 2, Ecoli growth 0.62, ALR H2O2 inh -25, Ecoli rRNA inh OD600 4 and Ecoli rRNA inh RFP -1.3.

The list goes on, starting with the last two of the part before.
`Cc1[nH]n(-c2ccccc2)c(=O)c1C(C[N+](=O)[O-])c1ccc(F)cc1` (configuration not stated) gave UCH37 inh 10, HNF4A DNA FP 1.1, Beta2AR agonist -1 and Ecoli growth 0.58.
`CC(OC(=O)c1cccc(-n2cnnn2)c1)C(=O)Nc1ccc(F)cc1Cl` (configuration not stated) gave UCH37 inh -3.4, Ecoli rRNA inh 10, FGF22 binding inactive, HNF4A DNA FP 1.8, Beta2AR agonist 2, Ecoli growth 0.62, ALR H2O2 inh -25, Ecoli rRNA inh OD600 4 and Ecoli rRNA inh RFP -1.3.
CC(C(=O)OCC(=O)N1CCCCC1)N1C(=O)c2ccccc2C1=O (configuration not stated) was read as UCH37 inh 0.7, Ecoli rRNA inh 3, FGF22 binding inactive, HNF4A DNA FP 2.8, Beta2AR agonist 1, Ecoli growth 0.71, ALR H2O2 inh -8, Ecoli rRNA inh OD600 -9 and Ecoli rRNA inh RFP -1.7.
`COC(=O)c1ccc(C2/C(=C(\O)c3ccc4c(c3)OCCO4)C(=O)C(=O)N2CCCN(C)C)cc1` (configuration not stated) gave UCH37 inh 7.2, HNF4A DNA FP 1.3, Beta2AR agonist 1, Ecoli growth 0.74 and ALR H2O2 inh 0.
Screening COC(=O)COc1ccc(S(=O)(=O)Nc2ccc(C(N)=O)cc2)cc1Cl returned UCH37 inh 0.7, Ecoli rRNA inh -10, FGF22 binding inactive, HNF4A DNA FP -0.5, Beta2AR agonist 1, Ecoli growth 0.67, ALR H2O2 inh -4, Ecoli rRNA inh OD600 -10 and Ecoli rRNA inh RFP 1.4.
CCc1cccc(CC)c1NC(=O)CO/N=C(\C)c1cccs1 was read as HNF4A DNA FP -3.0, Beta2AR agonist 7 and ALR H2O2 inh -5.
Cc1ccc(C)c(OCC(=O)Nc2cc(C(=O)O)cc(C(=O)O)c2)c1 was read as UCH37 inh -0.9, Ecoli rRNA inh -17, FGF22 binding inactive, HNF4A DNA FP -0.6, Beta2AR agonist -1, Ecoli growth 0.65, ALR H2O2 inh -1, Ecoli rRNA inh OD600 -30 and Ecoli rRNA inh RFP -9.4.
Screening CC(=O)Nc1ccc2nc(NC(=O)C(Cl)(Cl)Cl)sc2c1 returned UCH37 inh 5.0, Ecoli rRNA inh -37*, HNF4A DNA FP 4.9, Beta2AR agonist 2, Ecoli growth 0.66, ALR H2O2 inh -15, Ecoli rRNA inh OD600 -14* and Ecoli rRNA inh RFP -14*.
Cc1nnc(SCC(=O)NC2CC2)n1CC1CCCO1 (configuration not stated) was read as UCH37 inh 3.6, Ecoli rRNA inh 9, FGF22 binding inactive, HNF4A DNA FP 1.7, Beta2AR agonist 3, Ecoli growth 0.69, ALR H2O2 inh -15, Ecoli rRNA inh OD600 5 and Ecoli rRNA inh RFP 0.9.

The list is partial. The share of hits here may be higher or lower than overall.
